MLL AF4-AF9 inh: inhibitors of human MLL-AF4/AF9 interaction. P42568. AlphaScreen, biotin-AF4 peptide binding to FLAG-AF9. inhibition, % at 10 µM. 350,000 tested, 0.47% active;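 active = every replicate reaching a set inhibition limit, whatever the replicate mean, cut at about 25% in these data; inconclusive = mean inhibition reaches that limit but some replicates miss it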;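 note: 0% = plate neutral control median and 100% = total signal loss; the record names both 10 and 1 µM as test concentration; the first replicate is given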
Target sequence (P42568 whole entry, looked up): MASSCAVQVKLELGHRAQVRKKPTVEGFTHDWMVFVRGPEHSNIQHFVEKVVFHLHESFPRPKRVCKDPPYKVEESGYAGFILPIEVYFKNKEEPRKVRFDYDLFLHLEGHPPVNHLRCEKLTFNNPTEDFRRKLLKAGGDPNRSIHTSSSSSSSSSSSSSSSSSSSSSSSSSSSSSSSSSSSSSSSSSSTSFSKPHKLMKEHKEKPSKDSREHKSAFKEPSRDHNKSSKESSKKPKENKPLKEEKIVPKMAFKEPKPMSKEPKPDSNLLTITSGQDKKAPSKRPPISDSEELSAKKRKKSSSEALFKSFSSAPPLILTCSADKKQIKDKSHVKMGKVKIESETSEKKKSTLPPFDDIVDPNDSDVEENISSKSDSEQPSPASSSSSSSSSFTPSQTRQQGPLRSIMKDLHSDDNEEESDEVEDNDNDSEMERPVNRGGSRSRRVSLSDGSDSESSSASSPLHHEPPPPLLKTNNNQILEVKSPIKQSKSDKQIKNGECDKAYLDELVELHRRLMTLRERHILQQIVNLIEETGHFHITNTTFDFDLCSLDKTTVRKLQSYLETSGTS
HNF4A DNA FP: change in binding of human HNF4 alpha to DNA; HNF4a-FITC DNA binding, fluorescence polarization, 1 h; activity change, % at 10 µM; 360,000 tested, 0.3% active; AID 1224865; in the data active = activity change above about 30%, passing the limit was not always enough;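 note: controls were the assay level and a saturating level of protein; the project sought stronger binding though the title names inhibitors; some compounds called inactive have numbers as strong as hits; positive values seem to mean higher polarization but the record does not say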
Target sequence (P41235 whole entry, looked up): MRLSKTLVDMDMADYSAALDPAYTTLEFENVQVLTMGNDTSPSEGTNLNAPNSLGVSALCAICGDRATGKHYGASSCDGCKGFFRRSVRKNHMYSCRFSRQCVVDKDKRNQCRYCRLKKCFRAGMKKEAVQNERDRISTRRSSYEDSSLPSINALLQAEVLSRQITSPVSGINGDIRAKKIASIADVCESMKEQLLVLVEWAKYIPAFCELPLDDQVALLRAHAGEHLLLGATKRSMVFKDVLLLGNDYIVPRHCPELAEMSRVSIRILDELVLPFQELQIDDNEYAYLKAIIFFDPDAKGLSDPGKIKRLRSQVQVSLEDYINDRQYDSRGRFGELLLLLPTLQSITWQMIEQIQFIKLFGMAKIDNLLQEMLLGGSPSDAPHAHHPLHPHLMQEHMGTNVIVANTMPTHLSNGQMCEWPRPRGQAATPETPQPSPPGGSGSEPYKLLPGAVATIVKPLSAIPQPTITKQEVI
FGF22 binding: shifts melting point of recombinant human FGF22; AID 651658; Q9HCT0; calls only at 9.99 µM; recombinant FGF22 thermal shift, SYPRO orange fluorescence; percent of sucrose octasulfate shift, DMSO zero; 340,000 tested, 1.5% active;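 active = melting point raised past a set limit in the mean and every replicate; inconclusive = no clear call; three in four hits are not shown here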
RanGTP-Impb inh: inhibitors of RanGTP-importin-beta interaction, primary screen, biochemical, FRET, CFP-Ran, YFP-importin-beta, homogeneous; cell-free CFP-Ran/YFP-importin-beta FRET ratio; inhibition, % (test concentration not listed); 300,000 tested, 1.1% active;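 active = most replicates above 15%; inconclusive = exactly half above 15%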;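 note: 0% = DMSO wells and 100% = Ran loaded with GDP instead of GTP; wells of about 40 µL received 100 nL stock; the first replicate is given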
UCH37 DUB inh: inhibitors of human deubiquitinating enzyme UCH37; inhibition, % (test concentration not listed); Q9Y5K5; purified proteasome/UCH37, Ub-AMC cleavage fluorescence; 330,000 tested, 0.33% active;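 active = mean of two replicates above 20%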;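 note: 0% = compound-free wells with enzyme and 100% = wells lacking proteasome; stock transfer was 100 nL into about 20 µL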
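Material: human UCH37 enzyme supplied as purified proteasome complex / Amount: 0.15 nM proteasome as dispensed / Buffer or medium: pH 7.4 Tris-HCl (50 mM) with ovalbumin, ATP-MgCl2, DTT / Times: preincubation 30 min, reaction 25 min, room temperature / Technique: AMC fluorescence from Ub-AMC cleavage, excitation 355 nm, emission 460 nm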
Vif TR-FRET: inhibitors of Vif binding to APOBEC3G peptide, primary screen, biochemical, TR-FRET, GST-Vif 1-94, biotin-A3G peptide, dose response retest (AID 1117319); inhibition, %; hits with a dose series show IC50 in µM; 260,000 tested, 0.57% active; TR-FRET GST-Vif / biotin-A3G peptide binding; higher % means a stronger effect; test concentration not given here; strong numbers were not always called active;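 active = above the screen mean plus three standard deviations and confirmed in dose response; inconclusive = results disagree or hit not tested in dose response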;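 note: Vif residues 1-94 fused to GST binding biotinylated APOBEC3G peptide 110-148; 0% = full assay without inhibitor and 100% = GST in place of GST-Vif; retest series ran down from 100 µM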
E coli growth: inhibitors of Escherichia coli growth; OD600, 23 h; hits give low values; OD600 absorbance (test concentration not listed); 330,000 tested, 0.21% active; AID 1053175;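 active = OD600 absorbance below the run mean of sample wells minus 3.6 SD, in any replicate, cut at about 0.56 in these data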;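 note: stock transfer was 300 nL into about 60 µL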
An asterisk follows results filed as active; i = inactive; ? = inconclusive; . = not tested or not shown; & = joins results of further samples. These rows are one share of the data, so the mix of outcomes need not match the whole.

SMILES	MLL AF4-AF9 inh	HNF4A DNA FP	FGF22 binding	RanGTP-Impb inh	UCH37 DUB inh	Vif TR-FRET	E coli growth
COc1ccc(-c2[nH][nH]c(=O)c2NC(=O)c2ccc([N+](=O)[O-])cc2)cc1	-2.0	0.4	i	.	.	.	.
O=C1CC(=O)N(C2CCCCC2)C(=O)N1c1ccccc1S(=O)(=O)Oc1ccccc1	-0.6	64.9*	i	.	.	.	.
Cc1cc(C)nc(Nc2nc(-c3ccccc3)cs2)n1	-0.8	2.0	i	5.4	4.9	.	0.672
O=[N+]([O-])c1cccnc1N1CCN(Cc2ccc3c(c2)OCO3)CC1	9.8	3.9	i	0.5	2.6	.	0.655
COC(=O)c1cc(S(=O)(=O)N(C)Cc2ccco2)c[nH]1	1.3	2.1	i	0.9	4.3	.	0.691
COc1ccc(CCNC(=O)CN(c2ccccc2)S(=O)(=O)c2ccccc2)cc1	-2.7	2.5	i	.	.	5.3%	.
CCOC(=O)c1cc(NC(=O)CSCCO)ccc1Cl	.	0.6	.	2.8	0.6	-0.4%	0.685
Cn1cnc([N+](=O)[O-])c1Sc1ncn[nH]1	1.8	-0.8	i	0.3	8.5	.	0.662
COc1ccc(C)cc1S(=O)(=O)N1CCN(C/C=C/c2ccccc2)CC1	9.1	-3.2	i	.	-4.6	-14.1%	0.653
COc1ccc(C(=O)Oc2ccc(F)cc2C(=O)/C=C/c2ccc(OC)c(OC)c2)cc1	.	0.3	.	-3.8	1.0	.	0.732
COCCNC(=S)N1CCN(C/C=C/c2ccccc2)CC1	-1.7	-0.3	i	5.3	5.0	-2.1%	0.651
COC(=O)c1cc(C(=O)Nc2ccc(S(=O)(=O)NC(C)(C)C)cc2)cc([N+](=O)[O-])c1	.	0.0	.	4.6	5.3	.	0.683
CC(C)(O)C1=NOC(c2ccccc2)C1 (stereo unspecified)	.	1.6	.	-2.8	1.1	9.8%	0.656
Cc1cc(Cl)ccc1OCC(=O)NNC(=O)c1ccc(=O)[nH]c1	-0.9	-2.6	i	.	1.8	0.6%	0.696
Nc1nonc1-n1nnc(C(=O)N/N=C/c2ccccn2)c1-c1ccccc1	1.7	4.1	i	2.1	.	.	.
CC(C)(CC(=O)O)CC(=O)N1CCN(c2nc3ccc(Cl)cc3s2)CC1	.	0.0	.	2.2	2.3	6.3%	0.648
CS(=O)(=O)N(Cc1nc(-c2ccc(F)cc2)no1)c1ccccc1Cl	-2.7	-1.5	i	.	3.6	.	0.694
COCCSc1ccccc1C(=O)Nc1ccc(S(=O)(=O)N2CCOCC2)cc1	-1.4	2.0	i	5.1	0.2	.	0.703
COc1ccc(Cl)cc1NC(=O)CCN1CCN(Cc2ccccc2)CC1	5.2	-1.3	i	-0.4	3.6	.	0.697
CCC(=O)N1CCCC(C(=O)Nc2nc3ccccc3[nH]2)CC1 (stereo unspecified)	-0.7	2.6	i	.	.	.	.
CCCCN(C)C(=O)c1sc(=O)n(Cc2c(C)noc2C)c1C	-3.9	2.6	i	.	.	.	.
O=C(COc1ccc([N+](=O)[O-])cc1)NNC(=O)Nc1cccc(F)c1	-2.4	0.9	i	5.8	5.2	.	0.676
CC(NC(=O)c1ccccc1)c1nnc(SCc2nc3ccccc3c(=O)[nH]2)n1C (stereo unspecified)	-1.6	0.4	i	-2.8	3.1	1.2%	0.677
Cc1ccc(C(=O)NCCc2ccc(S(=O)(=O)N3CCCC3)cc2)cc1	0.1	0.5	i	7.0	-1.8	-8.9%	0.726
COc1ccc(/C=N\NC(=O)c2ccc(-c3ccccc3)cc2)cc1COC(C)=O	-6.9	-2.7	i	6.2	.	1.8%	.
COc1cc2c(cc1OC)CN(c1ccc(C(F)(F)F)cn1)CC2	-12.1	2.3	i	2.1	-2.2	.	0.701
O=C(C1CCN(S(=O)(=O)c2ccc(Br)cc2)CC1)N1CCOCC1	-0.6	1.9	i	7.1	4.8	-2.7%	0.742
O/N=C/c1ccc(-c2cc(Cl)ccc2Cl)o1	-8.2	5.5	i	-2.1	.	16.2%	.
O=C(c1cccc(S(=O)(=O)N2CCN(c3ccc(F)cc3)CC2)c1)N1CCCC1	1.8	1.1	i	.	2.3	1.6%	0.64
CCOc1ccc(S(=O)(=O)N2CCN(c3ccccc3F)CC2)c2cccnc12	.	-0.4	.	0.0	1.5	-2.0%	0.657
CC(C)(C)OC(=O)C[C@H]1C/C=C\C[C@H](CC(=O)NCCO)C(=O)NC[C@H](c2ccccc2)OC1=O	-1.1	-4.8	i	.	0.4	.	.
Cc1ccc(NC(=O)COC(=O)C2CC2(Cl)Cl)cc1C (stereo unspecified)	-2.0	1.3	i	-1.5	1.0	.	0.651
CCCCOc1ccc(Nc2cc(Cl)ccc2C(=O)O)cn1	3.2	1.3	i	2.1	.	?	.
O=C(/C=C/c1ccc2c(c1)OCCO2)N1CCN(c2ccc(F)cc2)CC1	-1.1	0.4	i	-0.8	-0.2	-2.3%	0.65
CCc1nnc(NC(=O)CCn2cnc3ccccc3c2=O)s1	-0.9	-0.1	.	-1.6	6.3	-2.2%	0.645
Cc1nc(C)c(C(=O)Nc2cccc(Cl)c2)o1	.	6.3	.	-0.2	2.7	?	0.645
Cc1cc(C)n(-c2nc(-c3ccc(Cl)c(Cl)c3)cs2)n1	.	0.6	.	0.1	0.2	28.3%	0.749
CCCCCC(=O)OCCc1c(C)nc2nc[nH]n2c1=O	-1.5	-1.1	i	.	2.0	-9.0%	0.702
O=C(c1n[nH]c2ccccc12)N1CCCCC1	-2.6	9.0	i	-1.5	1.8	.	0.708
O=C(COC(=O)Cc1ccc(S(=O)(=O)N2CCOCC2)s1)Nc1ccc(F)cc1F	-2.7	0.8	i	.	2.0	.	0.644
COc1ccc(C(=O)N2CCOCC2)cc1Br	.	2.5	.	3.9	0.8	12.8%	0.699
Cc1onc(-c2ccccc2Cl)c1C(=O)Nc1ccccc1N1CCOCC1	.	1.7	.	-5.9	1.1	-3.4%	0.629
CC(=O)c1cccc(NC(=O)CO/N=C2/CCCc3nonc32)c1	-2.7	2.2	i	-0.8	.	7.7%	.
CCCc1nnc(SCC(=O)N2CCOCC2)n1CC1CCCO1 (stereo unspecified)	0.1	-0.5	i	-1.3	2.1	1.9%	0.675
Cc1cc(C)nc(SCC(=O)NNS(=O)(=O)c2ccc(C#N)cc2)n1	-3.5	-4.7	.	.	2.4	20.7%	0.683
CC(=O)Nc1ccc(OC(=O)c2ccc(Br)c([N+](=O)[O-])c2)cc1	-2.4	5.1	i	6.8	3.0	.	0.714
CN(c1ccc(C(=O)N2CCN(c3ccc(F)cc3)CC2)cc1)S(C)(=O)=O	.	-3.3	.	-0.5	-1.4	11.9%	0.755
COc1ccc(N=Cc2cccc(C)c2O)cc1Cl	3.6	0.9	i	1.5	1.4	4.3%	0.693
Cc1ccc(C(CNS(=O)(=O)c2ccc(F)cc2C)N2CCN(C)CC2)cc1 (stereo unspecified)	3.5	-1.7	i	5.7	2.1	2.2%	0.624
O=C(Nc1cccc(NC(=O)c2cccs2)c1)c1ccc(F)cc1	-1.4	5.0	i	-3.8	5.5	0.3%	0.691

(next part)
SMILES	MLL AF4-AF9 inh	HNF4A DNA FP	FGF22 binding	RanGTP-Impb inh	UCH37 DUB inh	Vif TR-FRET	E coli growth
COC(=O)[C@H](CC(C)C)NC(=O)N1CCCCC1C (stereo partly specified)	-2.8	0.7	i	-0.2	4.5	2.1%	0.633
COc1ccc(N(C(C)C(=O)NN=C2CCCC2)S(C)(=O)=O)cc1 (stereo unspecified)	2.3	1.8	i	2.2	0.3	-8.7%	0.643
COc1ccc(CN2C(=O)C(CC(=O)NCCN3CCOCC3)CC(C(=O)N3CCCCCC3)=C2C)cc1 (stereo unspecified)	1.0	2.7	i	.	.	.	.
NC(=O)c1cnn2c(-c3cccc(C(F)(F)F)c3)ccnc12	-7.8	1.6	i	1.7	-62.8	-1.1%	0.708
CC(C)CNC(=O)COC(=O)/C=C/c1ccccc1[N+](=O)[O-]	.	-2.8	.	1.7	4.7	18.9%	0.685
CCOC(=O)CN1C(c2ccc(O)cc2)Nc2ccc(Br)cc2C1c1ccccc1 (stereo unspecified)	15.0	-1.7	i	-2.8	3.5	.	0.657
COc1ccc(S(=O)(=O)N2CCC(C(=O)N[C@@H](C)C(=O)NCc3ccncc3)CC2)cc1	-2.0	-1.7	i	1.0	-0.5	.	0.702
CCNC(=O)NC(=O)COC(=O)CNC(=O)COc1ccccc1	.	-0.4	.	-5.0	2.4	72.1%	0.695
Cc1ccc(/C=C2\SC(=S)N(C3CCS(=O)(=O)C3)C2=O)o1 (stereo unspecified)	5.2	17.4	i	7.3	3.6	-0.7%	0.707
CCN(CC)C(=O)C1=C(C)N(CCCN2CCCC2=O)C(=O)C(CC(=O)NC2CCCCC2)C1 (stereo unspecified)	2.7	-1.4	i	.	.	11.3%	.
CCC1(C(=O)OC)NC(c2cccc(F)c2)C2C(=O)N(C)C(=O)C21 (stereo unspecified)	.	1.5	.	20.3*	1.0	20.2%	0.668
COc1cccc(NC(=S)NN2C(C)CCCC2C)c1 (stereo unspecified)	2.8	-4.0	i	-2.7	0.1	.	0.669
CCNC(=O)C(C)Sc1ccc(Cl)cc1 (stereo unspecified)	.	0.5	.	-1.3	1.2	-2.9%	0.675
CC(=O)N1c2ccc(S(=O)(=O)N3CCCC3)cc2CC1C(=O)Nc1cc(C)cc(C)c1 (stereo unspecified)	-0.6	4.0	i	3.4	2.7	.	0.692
CNC(=O)C1CC(=O)N(c2ccc(OCC(=O)N3CCCC3)cc2)C1 (stereo unspecified)	-16.6	0.6	i	-0.3	0.7	.	0.676
O=C(Nc1ccc2c(c1)OCO2)N1CCC(CO)(CC2CCCCO2)CC1 (stereo unspecified)	-0.3	-0.4	i	?	4.9	-1.3%	0.653
O=c1c(Cc2ccc(Cl)cc2)c(O)ccn1Cc1ccccc1	.	-2.4	.	1.2	2.3	0.8%	0.758
CN(C)c1ccc(-c2nc3n(n2)C(c2cccnc2)C2=C(CC(C)(C)CC2=O)N3)cc1 (stereo unspecified)	.	4.2	.	?	5.3	6.8%&-3.6%	0.663
O=S1(=O)CC(N2CCN(CC3CC3)CC2)CN1Cc1ccc(F)cc1 (stereo unspecified)	-21.8	-1.2	i	.	.	.	.
O=C1CC(N2CCN(c3ccccc3Cl)CC2)C(=O)N1c1ccc(F)cc1 (stereo unspecified)	.	0.1	.	-2.6	0.9	3.2%	0.694
Cc1cccc(N(C)S(=O)(=O)c2c(C)[nH]c(C)c2C(=O)N2CCCC2)c1	-3.9	-1.5	i	1.0	4.8	.	0.673
COc1ccc(-c2nn(-c3ccccc3)cc2CNC[C@H]2O[C@@H](n3cnc4c(N)ncnc43)[C@H](O)[C@@H]2O)cc1	2.4	-0.2	i	.	2.7	1.3%	0.705

Compound profiles, from the list above:
`CN(C)c1ccc(-c2nc3n(n2)C(c2cccnc2)C2=C(CC(C)(C)CC2=O)N3)cc1` (stereo unspecified) is listed as MLL AF4-AF9 inh = .; HNF4A DNA FP = 4.2; FGF22 binding = .; RanGTP-Impb inh = ?; UCH37 DUB inh = 5.3; Vif TR-FRET = 6.8%&-3.6%; E coli growth = 0.663
`COc1ccc(C(=O)Oc2ccc(F)cc2C(=O)/C=C/c2ccc(OC)c(OC)c2)cc1` is listed as MLL AF4-AF9 inh = .; HNF4A DNA FP = 0.3; FGF22 binding = .; RanGTP-Impb inh = -3.8; UCH37 DUB inh = 1.0; Vif TR-FRET = .; E coli growth = 0.732
